# Bioassay records deposited in PubChem by several laboratories.
# Sa ugtP lethal: growth inhibition of ugtP-null S. aureus, primary screen, RN4220 ugtP deletion, OD600 | 16 h; some inactives read as strong as hits | growth inhibition, % (no concentration beside the values) | hit rate 0.54% among 330,000 | AID 1259309, 2017;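 active = z-score under -3 and OD600 up to 0.15 on both plates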;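 also: plate controls were untreated wells for no effect and antibiotic for full effect; wells of about 80 µL received 100 nL stock; the first replicate is given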
# BJeLR viability: MLPCN primary cell-based screen for lethality selective to Ras in HRASV12 cells; BJeLR (HRASV12) viability, CellTiter-Glo ATP luminescence, 48 h; reference of the scale not given here; inhibition, % (concentration not given with the values); hit rate 0.17% among 300,000;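 active = replicate mean above 50%; inconclusive = above 50% but judged a plate artefact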;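 also: 50 nL library stock added to about 25 µL; numbers are from one replicate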
# Mtb hypoxia inh: PubChem AID 1159583. fluorescence inhibition, % (no concentration beside the values). hit rate 0.1% among 300,000. M. tuberculosis hypoxia-regulated fluorescent reporter, fluorescence;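 active = 35 to 45% if threefold the growth effect, above 45% if 1.5-fold the growth effect; inactive = the rest, general growth blockers included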;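 also: wells of about 50 µL received 100 nL stock; 0% = vehicle wells and 100% = reference inhibitor wells; whole bacteria with a GFP reporter of the hypoxia response; strong numbers were not always called active; many hits fall short of the cut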
# Sa RN4220 lethal: growth inhibition of S. aureus RN4220, primary screen, OD600; 16 h; inhibition, % (no concentration beside the values); hit rate 0.33% among 330,000; AID 1259311, 2017;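 active = z-score of -3 or lower and OD600 up to 0.18 on both plates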;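 also: plate controls were untreated cells for no effect and reference antibiotic for full effect; stock transfer was 100 nL into about 80 µL; one replicate is shown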
# Bead autofluor: flagged as autofluorescent in microsphere protease counterscreen. hit rate 3.1% among 360,000. compound autofluorescence counterscreen, microsphere flow cytometry; hits give high values. AID 624483. fluorescence intensity (no concentration beside the values);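 active = at least 3 SD above the mean of all compounds, about 16000 in these data; inconclusive = too few beads counted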;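 also: 100 nL of 1 mM stock went into each well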
# PrP UTR inh: inhibition of PrP 5' UTR reporter expression; hit rate 0.35% among 340,000; inhibition, % (no concentration beside the values); cell-based PrP 5' UTR mRNA reporter, plate reader;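 active = every replicate at 50% or more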;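 also: 0 = median of the neutral control wells; tested in H4 reporter cells; numbers are from one replicate; inactives centre near -14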
# Mtb hypoxia inh growth: further read-out of Mtb hypoxia inh, marked with its call; growth inhibition, %; measured here: M. tuberculosis growth (absorbance);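 0% = vehicle and 100% = reference antibiotic; read after six days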
# An asterisk follows results filed as active; ? = inconclusive; nt = not tested or not shown.
compound,Sa ugtP lethal,BJeLR viability,Mtb hypoxia inh,Mtb hypoxia inh growth,Sa RN4220 lethal,Bead autofluor,PrP UTR inh
COc1cc(NC2c3ccccc3C(=O)N2Cc2ccc3c(c2)OCO3)cc(OC)c1 (stereo unspecified),18,-14,10,7,4.3,4489,9
CCOC(=O)c1nc(C)sc1-c1ccnn1S(=O)(=O)c1ccc(C)cc1,nt,-6,nt,nt,nt,3274,-5
Cc1ccc(NS(=O)(=O)c2cc(OCC(N)=O)c(C)cc2Cl)cc1,7,4,6,4,2.3,2123,-20
Cc1ccc(C(=O)N2CCN(c3ccc(NC(=O)c4cccs4)cc3)CC2)cc1,-4,-6,0,-3,0.4,?,8
CCc1ccc2[nH]c(=O)c(CN(Cc3ccco3)S(=O)(=O)c3ccc4c(c3)OCCO4)cc2c1,8,-9,3,5,2.0,11443,-52
COc1ccc(OC)c(CNC(=O)COc2cc(=O)n(C)c3ccccc23)c1,-2,2,8,3,5.2,9904,-13
Cc1cccc(N(CC(=O)NCc2ccc3c(c2)OCO3)C(=O)CCC(=O)Nc2ccccn2)c1C,-1,-14,nt,nt,-3.1,4353,-11
O=C(NCCc1ccc(Cl)cc1)C1CCN(S(=O)(=O)c2cccc3nonc23)CC1,-7,-6,nt,nt,3.2,4259,-10
CC(C)c1ccc(S(=O)(=O)N2CCN(C(=O)c3cc([N+](=O)[O-])ccc3N3CCOCC3)CC2)cc1,0,2,-4,3,-1.2,6174,7
Cc1ccc(C(=O)NC(=S)NNC(=O)c2ccccc2)cc1,8,-5,0,2,37,nt,0
Cc1ccc(S(=O)(=O)N(C)C)cc1NC(=O)COC(=O)Cc1ccc(Br)cc1,3,-1,9,-2,8.0,4556,-10
O=C(NCCCCCNC(=O)c1ccco1)c1ccco1,-2,-4,-2,6,0.5,4259,1

# (list continues)
compound,Sa ugtP lethal,BJeLR viability,Mtb hypoxia inh,Mtb hypoxia inh growth,Sa RN4220 lethal,Bead autofluor,PrP UTR inh
O=C(Nc1ccc2ncccc2c1)Nc1ccc2ncccc2c1,nt,-17,nt,nt,nt,3087,-13
Cc1nn(-c2ccccc2)c(N2CCCC2)c1/C=N/O,nt,4,nt,nt,nt,24403*,-20
CCOc1ccc(C(=O)NCC(=O)OCc2cc([N+](=O)[O-])cc3c2OCOC3)cc1OCC,22,0,-2,3,2.8,2984,-33
Cc1cccc(N(C(=O)CNC(=O)c2ccco2)C(C(=O)NC2CCCC2)c2cccnc2)c1 (stereo unspecified),3,2,nt,nt,2.7,2729,-16
CCN(CC)C(=O)c1ccc(-c2cccs2)s1,3,-2,18,6,-0.3,4406,-64
O=C(c1cc(COc2ccc(F)cc2F)on1)N1CCCC(c2ccccc2)C1 (stereo unspecified),17,8,4,-9,2.2,4944,-15
CCOC(=O)c1cc(C#N)c(Oc2ccccc2OC)nc1-c1ccccc1,29,-1,nt,nt,-4.7,2212,-11
CCN(CC(=O)Nc1ccc(S(=O)(=O)N2CCCC2)cc1)Cc1ccccc1,4,1,-1,16,2.0,nt,-12
Cc1ccc(NC(=O)COC(=O)/C=C/c2cccs2)cc1,8,-5,8,2,3.2,2049,-12
CC(C)(C)n1ncc2c(=O)n(CC(=O)N3CCCc4ccccc43)cnc21,-5,3,20,5,-9.7,3435,-29
CC1(C)Cc2ccccc2-c2nc(NCCCO)[nH]c(=O)c21,4,15,16,4,7.6,4110,-27
c1cncc(C(c2nnnn2C2CCCCC2)N2CCN3CCCC3C2)c1 (stereo unspecified),6,nt,nt,nt,2.7,5047,-11

# The listing continues:
compound,Sa ugtP lethal,BJeLR viability,Mtb hypoxia inh,Mtb hypoxia inh growth,Sa RN4220 lethal,Bead autofluor,PrP UTR inh
O=S(=O)(NCCN1CCOCC1)c1ccc(F)c(Cl)c1,14,-3,0,1,-1.1,3479,-28
O=C(c1ccc2c(c1)OCO2)C1CCCN(Cc2cn[nH]c2-c2cccc(F)c2)C1 (stereo unspecified),-3,14,0,-8,2.0,3398,-10
CC1(C)CC(NC(=O)c2cccc(F)c2)CC(C)(C)N1,7,1,7,12,3.0,3806,-14
Cc1ccc(C(C(=O)NC2CCCC2)N(Cc2cccnc2)C(=O)c2snc(C(N)=O)c2N)o1 (stereo unspecified),-4,-8,-11,-11,-2.3,9818,5
Cc1ccc(NC(=O)N(Cc2cccnc2)Cc2ccco2)cc1C,3,10,10,7,1.7,23168*,-16
CC(=NNc1nc(-c2ccccn2)nc2ccccc12)c1ccc(F)cc1,-12,nt,1,8,8.0,nt,nt
Cc1cc(N2CCN(S(=O)(=O)c3ccc(C)c(C)c3)CC2)c2ccccc2n1,10,1,7,4,2.6,23251*,-15
CCOc1ccccc1NC(=S)NC(=O)CCCOc1ccc(Cl)cc1Cl,-24,-3,7,3,-2.2,9242,7
COC(=O)CSc1nnc(-c2ccc(S(=O)(=O)N3CCC(C)CC3)cc2)o1,7,-3,19,19,0.7,nt,-12
CC(C)C[C@@H](C(=O)N[C@@H](C(=O)O)c1ccccc1)N1C(=O)N2CCc3c([nH]c4ccccc34)[C@@]2(C)C1=O,11,0,nt,nt,-0.7,5340,-8
COc1ccc(CC(=O)NNC(=O)c2ccncc2)cc1,4,6,10,8,14,5020,0
CC(=O)C1=C(O)C(=O)N(c2cccnc2)C1c1ccc([N+](=O)[O-])cc1 (stereo unspecified),5,9,-2,1,4.4,nt,nt

# (next part)
compound,Sa ugtP lethal,BJeLR viability,Mtb hypoxia inh,Mtb hypoxia inh growth,Sa RN4220 lethal,Bead autofluor,PrP UTR inh
Cn1c(-c2ccc(Cl)cc2)ccc(C#N)c1=O,-8,-16,9,25,15,5707,-5
Cc1ccc(-n2c(O)c(C=NCC3CCCO3)c(=O)[nH]c2=O)c(C)c1 (stereo unspecified),-2,0,4,9,0.6,6540,-29
Cc1cc(Br)ccc1NC(=O)CNC(=O)Cn1ncc(Cl)c(Cl)c1=O,nt,-2,nt,nt,nt,4128,-38
CN(c1ccc(OCC(=O)OCC(=O)NC2CCCC2)cc1)S(=O)(=O)c1ccc2ccccc2c1,-8,0,1,-5,-4.0,3987,-24
CC(C)CNC(=O)COC(=O)c1cc(Cl)cc(Cl)c1N,-3,0,13,9,-1.9,4374,-22
COc1ccc(N2CCN(C(=O)c3ccccc3N(C)S(=O)(=O)c3ccc(C)cc3)CC2)cc1,3,9,4,17,1.2,5228,-11
Cn1cccc1-c1nc2ccc(NC(=O)c3cccs3)cc2[nH]1,4,13,nt,nt,-3.3,3022,-14
O=C(O)CCCNC(=O)CC1S/C(=N/N=C/c2ccccc2O)NC1=O (stereo unspecified),nt,0,nt,nt,nt,2893,-37
O=C(N/N=C/c1cccc([N+](=O)[O-])c1)c1ccc(COc2ccccc2-c2ccccc2)cc1,nt,11,nt,nt,nt,2494,-8
O=C(CSc1ccc(Cl)cc1)N1CCN(c2ncc(C(F)(F)F)cc2Cl)CC1,38,-3,5,1,0.4,6481,-14
Clc1ccccc1CN1CCN(c2ncccn2)CC1,5,15,7,10,1.7,3667,5
CSc1nsc(SCC(=O)Nc2ccccc2C(N)=O)n1,7,-13,-13,-5,3.3,2895,-13

# Further structures
compound,Sa ugtP lethal,BJeLR viability,Mtb hypoxia inh,Mtb hypoxia inh growth,Sa RN4220 lethal,Bead autofluor,PrP UTR inh
CC(=O)NCC(=O)N(c1c(C)n(C)n(-c2ccccc2)c1=O)C1(C(=O)NC2CCCC2)CCCCC1,-2,-5,7,12,-2.1,4415,-10
OC(CNCCc1ccc(C(F)(F)F)cc1)COc1cccc2ccccc12 (stereo unspecified),-11,2,-3,-11,22,2096,-11
CCN(CC)CCCNC(=O)c1cc(-c2ccc3c(c2)OCO3)on1,16,0,-6,-14,5.4,3638,-12
CCOC(=O)C1(Cc2ccccc2)CCN(Cc2ccon2)CC1,3,-11,1,4,4.4,3471,-32
CC1CCCN(c2nc3c(c(=O)n(C)c(=O)n3C)n2CCSc2nc3ccccc3s2)C1 (stereo unspecified),-12,-9,8,-1,9.6,20318*,-29
O=C(CSc1nnc2ccccn12)NNC(=O)c1cccc(Cl)c1,6,nt,3,-5,-0.6,3751,-49
CCOc1ccccc1Nc1nc2ccccc2n1C(C)C,0,-3,5,3,3.7,2564,-8
Cc1ccc(COc2cccc(/C=N/NC(=O)c3nnn(-c4nonc4N)c3C)c2)cc1,nt,3,nt,nt,nt,4296,-21
COc1cccc(C(=O)Nc2nnc(S(=O)(=O)N(C)c3ccccc3)s2)c1,25,2,4,0,32,4658,3
CCCOc1cccc(C2C(C(=O)c3ccco3)=C(O)C(=O)N2c2nnc(C)s2)c1 (stereo unspecified),nt,2,nt,nt,nt,6092,-1
c1ccc(NN=C(Cc2ncc[nH]2)c2ccccc2)cc1,1,nt,10,-1,2.3,nt,nt
CCOC(=O)CSc1nnc(CSc2nc3sc4c(c3c(=O)[nH]2)CCC4)n1-c1ccccc1,-6,0,-2,-2,8.4,21953*,-15

# Following part:
compound,Sa ugtP lethal,BJeLR viability,Mtb hypoxia inh,Mtb hypoxia inh growth,Sa RN4220 lethal,Bead autofluor,PrP UTR inh
N=c1n(CCO)c2ccccc2n1Cc1ccccc1Cl,9,8,12,14,2.4,3346,-21
CCCCN(Cc1cc2ccccc2[nH]c1=O)S(C)(=O)=O,1,2,18,7,6.2,2592,-2
Cc1cc(NC(=O)C2CC2)ncc1NC(=O)C12CC3CC(CC(C3)C1)C2,-1,0,18,13,2.7,4064,-6
Cc1scc(C(=O)NN=Cc2ccco2)c1C,0,nt,17,8,1.5,nt,nt
c1cncc(-c2nc3ccccc3[nH]2)c1,1,-4,11,7,6.0,11275,-26
Cc1ccc(S(=O)(=O)N2CCC3(CC2)OCCN3S(=O)(=O)c2c(C)cc(C)cc2C)cc1,11,5,3,1,0.5,7100,-9
CC(C)CNP(=S)(c1ccccc1)C(C)(C)C (stereo unspecified),3,-3,8,11,7.9,4685,-43
CN(C)c1ccc(CN(C(=O)c2ccccc2Br)C2CCS(=O)(=O)C2)cc1 (stereo unspecified),14,-20,-9,-5,7.7,4354,-8
C=CCNC(=O)c1c(CSc2ccccc2)noc1C(=O)NCc1ccccc1,5,nt,6,3,2.0,3561,-17
O=C(C[n+]1cc(Br)cc2ccccc21)c1ccc(F)cc1,-1,10,19,9,-5.2,7385,-18
CCNC(=S)N1CCc2cc(OC)c(OC)cc2C1COc1ccccc1OC (stereo unspecified),-1,2,5,6,-2.2,3940,-10
CC(C)(C)C(=O)Nc1ncccc1C(O)c1cccc(C(F)(F)F)c1 (stereo unspecified),-2,-3,4,17,4.9,2424,-22

# More results
compound,Sa ugtP lethal,BJeLR viability,Mtb hypoxia inh,Mtb hypoxia inh growth,Sa RN4220 lethal,Bead autofluor,PrP UTR inh
COc1ccc(CNS(=O)(=O)c2cc3c4c(c2)CCN4C(=O)CC3)cc1,-1,4,-1,11,1.0,6140,-3
CCc1ccc(-n2c(O)c(C=NN3CCCCC3c3cccnc3)c(=O)[nH]c2=O)cc1 (stereo unspecified),-6,nt,8,2,5.2,nt,nt
CCOC(=O)C1CCCN(C(=O)c2ccc3c(c2)NC(=O)C(N2CCOCC2)S3)C1 (stereo unspecified),6,4,5,6,3.3,3799,-2
C=CCOC(=O)C1=C(C)NC(=O)NC1c1ccc(OCC)cc1 (stereo unspecified),3,-16,-5,-3,-4.6,3446,-4
O=C(c1ccc(Cl)cc1)N1C2C=CC(C2)C1(C(F)(F)F)C(F)(F)F (stereo unspecified),5,-1,11,-1,3.8,2349,-21
CCN1C[C@]2(COC)C(O)CC(OC)[C@@]34C5C[C@]6(O)C(OC)C(O)[C@@](OC(C)=O)(C5C6OC(=O)c5ccccc5)C(C(OC)C23)C14 (stereo partly specified),-1,nt,8,15,5.5,nt,nt
Cc1ccc2nc(-c3ccccc3)nn2c1,6,nt,23,8,8.5,4144,61*
COc1ccc(Cl)cc1C(=O)NNC(=S)NC(=O)/C=C/c1ccco1,0,2,-8,11,2.1,4236,-5
COc1ccccc1C1=NC(c2ccc(C)cc2)N=C1C (stereo unspecified),11,8,5,15,11,2608,-13
COc1ccc(C(C)=O)cc1COC(=O)c1cccnc1SC,-3,3,-1,-3,4.3,3121,-5
CCCCCCOC(=O)CCc1c(C)nc(N)[nH]c1=O,-4,12,3,-2,4.3,3391,-16

# Part of the list above with just Sa ugtP lethal:
SMILES	Sa ugtP lethal
CCN1C[C@]2(COC)C(O)CC(OC)[C@@]34C5C[C@]6(O)C(OC)C(O)[C@@](OC(C)=O)(C5C6OC(=O)c5ccccc5)C(C(OC)C23)C14 (stereo partly specified)	-1
Cc1ccc2nc(-c3ccccc3)nn2c1	6
